Ran importin: inhibitors of Ran–importin-beta complex formation, primary screen, biochemical, CFP-Ran/YFP-importin-beta FRET, RCC1, cell-free (AID 434961); CFP-Ran/YFP-importin-beta FRET, cell-free; stronger effect = higher value; actives 0.2% (n = 7,700); inhibition, %;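 active = more than half of the replicate wells above 15% inhibition; inconclusive = exactly half above it; inactive = fewer than half above it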;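 note: 0% = DMSO wells and 100% inhibition = RanGDP control wells on each plate; stock of unstated strength diluted about 400-fold; mean of two wells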
* marks the source's active call; other numbers are inactive results; ? = inconclusive.

| # | Ran importin | structure |
| --- | --- | --- |
| 1 | 1.5 | C[C@H](CO)N1C[C@H](C)[C@H](CN(C)S(=O)(=O)c2ccc(Cl)cc2)Oc2c(NS(C)(=O)=O)cccc2C1=O |
| 2 | -1.5 | C[C@@H]1CN([C@H](C)CO)C(=O)Cc2cc(NC(=O)CCN3CCOCC3)ccc2O[C@@H]1CN(C)C(=O)Nc1cccc2ccccc12 |
| 3 | -3.0 | C[C@H]1CN([C@@H](C)CO)C(=O)CCCn2nncc2CO[C@@H]1CN(C)S(=O)(=O)c1ccc(Cl)cc1 |
| 4 | -1.1 | Cc1noc(C)c1S(=O)(=O)N(C)C[C@H]1OCCCC[C@@H](C)Oc2ccc(NS(C)(=O)=O)cc2C(=O)N([C@@H](C)CO)C[C@@H]1C |
| 5 | ? | CNC[C@H]1Oc2c(NS(=O)(=O)c3ccc(Cl)cc3)cccc2C(=O)N([C@@H](C)CO)C[C@H]1C |
| 6 | -1.8 | C[C@H](CO)N1C[C@H](C)[C@H](CN(C)C(=O)C2CCCCC2)OCCCC[C@H](C)Oc2ccc(NC(=O)Nc3ccccc3)cc2C1=O |
| 7 | -5.5 | C[C@@H]1CN([C@@H](C)CO)C(=O)Cc2cc(NC(=O)NC3CCCCC3)ccc2O[C@@H]1CN(C)C |
| 8 | -7.1 | COc1ccc(CN(C)C[C@H]2Oc3c(NS(=O)(=O)c4ccc(OC)cc4)cccc3C(=O)N([C@@H](C)CO)C[C@H]2C)cc1 |
| 9 | 1.0 | C[C@@H]1CN([C@@H](C)CO)C(=O)c2cc(NC(=O)Nc3ccc(F)cc3)ccc2O[C@@H](C)CCCCO[C@H]1CN(C)C(=O)Cc1ccccc1 |
| 10 | 1.1 | C[C@H](CO)N1C[C@H](C)[C@@H](CN(C)S(=O)(=O)c2ccc(Cl)cc2)OCc2cnnn2CCCC1=O |
| 11 | 7.1 | COc1ccc(S(=O)(=O)N(C)C[C@H]2Oc3c(NC(=O)Nc4c(C)noc4C)cccc3C(=O)N([C@H](C)CO)C[C@H]2C)cc1 |
| 12 | -3.2 | Cc1noc(C)c1S(=O)(=O)N(C)C[C@@H]1Oc2ccc(NC(=O)CCCN(C)C)cc2C(=O)N([C@H](C)CO)C[C@@H]1C |
| 13 | -1.0 | CC(C)NC(=O)N(C)C[C@@H]1Oc2ccc(NC(=O)C3CC3)cc2CC(=O)N([C@@H](C)CO)C[C@@H]1C |
| 14 | 1.9 | Cc1noc(C)c1S(=O)(=O)Nc1ccc2c(c1)C(=O)N([C@H](C)CO)C[C@@H](C)[C@H](CN(C)C(=O)CCC(F)(F)F)OCCCC[C@@H](C)O2 |
| 15 | ? | COc1ccc(S(=O)(=O)N(C)C[C@H]2Oc3c(NC(=O)c4cc(C)nn4C)cccc3C(=O)N([C@H](C)CO)C[C@@H]2C)cc1 |
| 16 | -3.8 | C[C@@H]1CN([C@@H](C)CO)C(=O)Cc2cc(NC(=O)c3ccncc3)ccc2O[C@@H]1CN(C)S(=O)(=O)c1ccccc1 |
| 17 | 3.9 | C[C@H](CO)N1C[C@H](C)[C@@H](CN(C)C(=O)CCCN(C)C)OCc2cn(nn2)CCCC1=O |
| 18 | 1.5 | C[C@H]1CN([C@@H](C)CO)C(=O)CCCn2cc(nn2)CO[C@H]1CN(C)Cc1cccc2c1OCCCO2 |
| 19 | -2.7 | C[C@H](CO)N1C[C@H](C)[C@H](CN(C)C(=O)Nc2ccc(F)cc2)Oc2ncc(/C=C/c3ccccc3)cc2C1=O |
| 20 | 1.0 | C[C@H](CO)N1C[C@H](C)[C@H](CN(C)C(=O)Nc2cccc3ccccc23)Oc2ncc(-c3ccccc3)cc2C1=O |
| 21 | -2.6 | C[C@H](CO)N1C[C@H](C)[C@@H](CN(C)CC2CCCCC2)Oc2ccc(NS(=O)(=O)c3ccc(Cl)cc3)cc2CC1=O |
| 22 | -5.6 | C[C@H]1CN([C@@H](C)CO)C(=O)Cc2cc(NC(=O)Cn3cnnn3)ccc2O[C@H]1CN(C)C |
| 23 | 1.4 | C[C@H](CO)N1C[C@H](C)[C@@H](CN(C)S(=O)(=O)c2ccccc2)Oc2ccc(N(C)C)cc2CC1=O |
| 24 | 1.6 | C[C@@H]1CN([C@@H](C)CO)C(=O)Cc2cc(N(C)C)ccc2O[C@@H]1CN(C)Cc1ccc(Cl)c(Cl)c1 |
| 25 | -1.3 | C[C@@H]1CCCCO[C@@H](CN(C)S(=O)(=O)c2cn(C)cn2)[C@@H](C)CN([C@@H](C)CO)C(=O)c2cc(NC(=O)CCCN(C)C)ccc2O1 |
| 26 | 0.9 | C[C@H]1CCCCO[C@H](CN(C)C(=O)Nc2ccc3c(c2)OCO3)[C@@H](C)CN([C@@H](C)CO)C(=O)c2cc(NS(C)(=O)=O)ccc2O1 |
| 27 | -1.4 | COc1ccc(S(=O)(=O)Nc2cccc3c2O[C@@H](CN(C)Cc2ccc(C(=O)O)cc2)[C@@H](C)CN([C@@H](C)CO)C3=O)cc1 |
| 28 | 3.0 | C[C@@H]1CN([C@H](C)CO)C(=O)c2cccc(NS(=O)(=O)c3ccccc3)c2O[C@H]1CN(C)C |
| 29 | -0.1 | C[C@@H]1CN([C@@H](C)CO)C(=O)c2cc(NC(=O)Nc3ccc(F)cc3)ccc2O[C@H]1CN(C)C |
| 30 | -1.6 | C[C@H](CO)N1C[C@H](C)[C@@H](CN(C)S(=O)(=O)c2ccc(Cl)cc2)Oc2ccc(NS(=O)(=O)c3cccs3)cc2CC1=O |

4 of these compounds in another layout:
30) C[C@H](CO)N1C[C@H](C)[C@@H](CN(C)S(=O)(=O)c2ccc(Cl)cc2)Oc2ccc(NS(=O)(=O)c3cccs3)cc2CC1=O
  Ran importin = -1.6

27) COc1ccc(S(=O)(=O)Nc2cccc3c2O[C@@H](CN(C)Cc2ccc(C(=O)O)cc2)[C@@H](C)CN([C@@H](C)CO)C3=O)cc1
  Ran importin = -1.4

21) C[C@H](CO)N1C[C@H](C)[C@@H](CN(C)CC2CCCCC2)Oc2ccc(NS(=O)(=O)c3ccc(Cl)cc3)cc2CC1=O
  Ran importin = -2.6

23) C[C@H](CO)N1C[C@H](C)[C@@H](CN(C)S(=O)(=O)c2ccccc2)Oc2ccc(N(C)C)cc2CC1=O
  Ran importin = 1.4

Remaining list, next part
| # | Ran importin | structure |
| --- | --- | --- |
| 31 | -2.9 | C[C@H]1CN([C@@H](C)CO)C(=O)Cc2cc(NC(=O)Cc3ccccc3)ccc2O[C@@H]1CN(C)S(=O)(=O)c1cn(C)cn1 |
| 32 | -2.3 | C[C@H](CO)N1C[C@H](C)[C@H](CN(C)S(=O)(=O)c2cccs2)Oc2c(NS(=O)(=O)c3ccc(Cl)cc3)cccc2C1=O |
| 33 | 0.9 | C[C@H]1CN([C@@H](C)CO)C(=O)c2cccc(N(C)C)c2O[C@@H]1CN(C)Cc1ccc(C(=O)O)cc1 |
| 34 | 0.6 | C[C@H]1CN([C@@H](C)CO)C(=O)c2cccc(NS(C)(=O)=O)c2O[C@H]1CN(C)Cc1ccc(Oc2ccccc2)cc1 |
| 35 | -4.2 | Cc1noc(C)c1S(=O)(=O)N(C)C[C@@H]1Oc2c(NC(=O)c3cnccn3)cccc2C(=O)N([C@@H](C)CO)C[C@@H]1C |
| 36 | -2.9 | CNC[C@H]1Oc2c(NC(=O)Nc3ccc(C(F)(F)F)cc3)cccc2C(=O)N([C@H](C)CO)C[C@@H]1C |
| 37 | -0.1 | C[C@@H]1CCCCO[C@H](CN(C)C(=O)Nc2cccc3ccccc23)[C@H](C)CN([C@@H](C)CO)C(=O)c2cc(NC(=O)c3ccncc3)ccc2O1 |
| 38 | 7.5 | C[C@H](CO)N1C[C@H](C)[C@@H](CN(C)S(=O)(=O)c2ccc(Cl)cc2)Oc2c(NC(=O)C3CCOCC3)cccc2C1=O |
| 39 | 5.1 | C[C@@H]1CN([C@@H](C)CO)C(=O)Cc2cc(NS(C)(=O)=O)ccc2O[C@@H]1CN(C)C |
| 40 | 5.3 | C[C@H]1CN([C@@H](C)CO)C(=O)CCCn2cc(nn2)CO[C@@H]1CN(C)Cc1ccncc1 |
| 41 | ? | C[C@H]1CN([C@@H](C)CO)C(=O)c2cccc(NS(=O)(=O)c3ccc(Cl)cc3)c2O[C@@H]1CN(C)C(=O)Nc1cccc2ccccc12 |
| 42 | -2.6 | COc1ccc(S(=O)(=O)N(C)C[C@@H]2Oc3ccc(NC(=O)CCCN(C)C)cc3CC(=O)N([C@H](C)CO)C[C@H]2C)cc1 |
| 43 | 0.6 | C[C@@H]1CCCCO[C@H](CN(C)C)[C@@H](C)CN([C@H](C)CO)C(=O)c2cc(NS(=O)(=O)c3cccs3)ccc2O1 |
| 44 | -1.5 | Cc1noc(C)c1S(=O)(=O)Nc1ccc2c(c1)C(=O)N([C@H](C)CO)C[C@H](C)[C@@H](CN(C)C(=O)CCC(F)(F)F)OCCCC[C@@H](C)O2 |
| 45 | 6.9 | C[C@H](CO)N1C[C@H](C)[C@H](CN(C)Cc2ccc(C(=O)O)cc2)Oc2ccc(NC(=O)C3CC3)cc2C1=O |
| 46 | 8.3 | C[C@H](CO)N1C[C@H](C)[C@@H](CN(C)C(=O)Nc2ccccc2)OCCCC[C@H](C)Oc2ccc(NS(C)(=O)=O)cc2C1=O |
| 47 | 1.0 | Cc1noc(C)c1NC(=O)Nc1cccc2c1O[C@H](CN(C)C(=O)Nc1c(C)noc1C)[C@@H](C)CN([C@@H](C)CO)C2=O |
| 48 | 3.1 | C[C@H](CO)N1C[C@H](C)[C@@H](CN(C)CC2CC2)Oc2c(NC(=O)c3ccc(-c4nccs4)cc3)cccc2C1=O |
| 49 | -5.2 | C[C@H]1CN([C@@H](C)CO)C(=O)c2cccc(NC(=O)Nc3ccc(F)cc3)c2O[C@H]1CN(C)C |
| 50 | 0.6 | C[C@H](CO)N1C[C@H](C)[C@H](CN(C)S(=O)(=O)c2cn(C)cn2)Oc2ccc(NC(=O)NC3CCCCC3)cc2CC1=O |

Part of the list above in order of SMILES length, lowest first.
| # | Ran importin | structure |
| --- | --- | --- |
| 45 | 6.9 | C[C@H](CO)N1C[C@H](C)[C@H](CN(C)Cc2ccc(C(=O)O)cc2)Oc2ccc(NC(=O)C3CC3)cc2C1=O |
| 50 | 0.6 | C[C@H](CO)N1C[C@H](C)[C@H](CN(C)S(=O)(=O)c2cn(C)cn2)Oc2ccc(NC(=O)NC3CCCCC3)cc2CC1=O |
| 46 | 8.3 | C[C@H](CO)N1C[C@H](C)[C@@H](CN(C)C(=O)Nc2ccccc2)OCCCC[C@H](C)Oc2ccc(NS(C)(=O)=O)cc2C1=O |
| 41 | ? | C[C@H]1CN([C@@H](C)CO)C(=O)c2cccc(NS(=O)(=O)c3ccc(Cl)cc3)c2O[C@@H]1CN(C)C(=O)Nc1cccc2ccccc12 |

The list is partial (hit frequency here may not be typical).
